Screens: PubChem BioAssay, National Center for Advancing Translational Sciences (NCATS)
NS1 inh: qHTS Assay for Inhibitors of Influenza NS1 Protein Function. S. cerevisiae slowed by influenza A NS1, growth recovery by OD600. Potency, µM (doses to about 46.1 µM), inactives show top-dose activity, positive = more growth. 270,000 compounds, 0.4% hits. AID 2326, 2010; also: actives are rising curves; nearly all actives have a fitted effect of over 50% in size
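Read-out: OD600 growth recovery of NS1-expressing budding yeast. Cells grown overnight at 30C in -URA glucose medium, washed, resuspended and diluted 1:100 in 2% galactose assay medium, pH 6.0. Same strain lacking NS1 served as positive control.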
StopGo reporter: High Throughput Screening for Foot and Mouth Disease Virus Antivirals; human cells with a luciferase reporter of 2A StopGo recoding; control for the full effect not named in the record; 410,000 compounds, 1.2% hits; AID 1159524, 2015; Potency, µM (doses to about 57.9 µM), for inactives: at the highest dose signal change, negative = less light; active = well fitted falling curve with a large enough effect; inconclusive = small, poorly fitted or top-dose-only effect; inactive = no such curve, though single readings can be large or run the other way; tested in HEK293T cells; also: % is scaled to controls: 0 for no effect and ±100 for the full control effect; nearly all actives have a fitted effect of over 45% in size; luciferase light after 4 h
Cruzain Triton: qHTS Assay for Promiscuous and Specific Inhibitors of Cruzain (with detergent) | Cruzipain (Trypanosoma cruzi), P25779 | purified cruzain, Z-FR-AMC fluorescence, 0.01% Triton | Potency, µM, for inactives: max response, negative = inhibition, actives largely listed as inhibitors | 200,000 compounds, 0.43% hits; active = well fitted curve in the direction sought with a large enough effect; inconclusive = small, poorly fitted or top-dose-only effect, or another doubt; inactive = no such curve, though single readings can be large; an effect the other way counts as inactive or inconclusive;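 also: plate controls were neutral wells for no effect and buffer without enzyme for full effect; nearly all actives have a fitted effect of over 40% in size; top concentration of the series not given in the record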
Target sequence (P25779 123-467 limits assumed): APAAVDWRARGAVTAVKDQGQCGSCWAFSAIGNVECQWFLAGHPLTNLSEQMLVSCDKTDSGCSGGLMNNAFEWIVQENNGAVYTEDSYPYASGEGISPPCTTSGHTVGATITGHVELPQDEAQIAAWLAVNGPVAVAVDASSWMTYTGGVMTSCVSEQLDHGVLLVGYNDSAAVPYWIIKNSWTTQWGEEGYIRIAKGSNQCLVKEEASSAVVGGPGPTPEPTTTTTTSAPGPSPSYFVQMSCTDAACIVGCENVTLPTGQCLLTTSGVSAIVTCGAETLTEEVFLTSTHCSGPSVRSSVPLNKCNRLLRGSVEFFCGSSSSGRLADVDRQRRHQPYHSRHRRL
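Cruzain (1.5 nM) preincubated 15 min at RT with compound in 100 mM sodium acetate pH 5.5, 5 mM DTT, 0.01% Triton X-100. Reaction started with 2 uM Z-FR-AMC; AMC fluorescence (ex 360/em 450 nm) change over 60 s gave rate.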
LASV entry inh: qHTS for Inhibitors of binding or entry into cells for Lassa Virus; 300,000 compounds, 1.2% hits; Lassa virus pseudotype entry inhibition, cell reporter; control for the full effect not named in the record; Potency, µM (series often up to 37.9 µM), inactives show top-dose activity change, negative = inhibition, usual class: inhibitors; active means well fitted inhibition curve with a large enough effect; inconclusive means small, poorly fitted or top-dose-only effect, or effect the other way; inactive means flat fitted curve, though single readings scatter; tested in HEK293 cells; also: % is scaled to controls: 0 for no effect and ±100 for the full control effect; nearly all actives have a fitted effect of over 50% in size; luciferase read-out
SARS PLpro yeast: qHTS of Yeast-based Assay for SARS-CoV PLP | 330,000 compounds, 0.19% hits | Potency, µM (highest dose often 32.9 µM), for inactives: top-dose activity, positive = growth rescue | S. cerevisiae expressing SARS-CoV PLpro, growth rescue; control for the full effect not named in the record; also: 0% is about no effect; nearly all actives have a fitted effect of over 55% in size; growth read by luminescence after 48 h
RE007 growth inh: qHTS Assay for Inhibitors of the HIV-1 protein Vpr; S. pombe RE007 Vpr strain, BacTiter-Glo ATP luminescence, 24 h; control for the full effect not named in the record; Potency, µM (top dose mostly 92.2 µM), for inactives: at the top dose activity change, negative = less growth; 360,000 compounds, 0.21% hits; AID 651644, 2012; active = well fitted falling curve with a large enough effect; inconclusive = small, poorly fitted or top-dose-only effect; inactive = no such curve, though single readings can be large or run the other way;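 also: % is scaled to controls: 0 for no effect and ±100 for the full control effect; nearly all actives have a fitted effect of over 50% in size; the assay follows cell death caused by Vpr and the record does not say whether a fall means rescue or toxicity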
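Fission yeast RE007 carrying one integrated HIV-1 vpr copy, seeded at OD 0.01 in PMG+AL medium with 23 nL pinned compound. Grown 24 h at 30 degrees; viability read by BacTiter-Glo luminescence after 5 min.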
Cruzain noTriton: qHTS Assay for Promiscuous and Specific Inhibitors of Cruzain (without detergent); 200,000 compounds, 2.3% hits; Cruzipain (Trypanosoma cruzi), P25779; purified cruzain, Z-FR-AMC fluorescence, no detergent; AID 1476, 2009; Potency, µM, without a hit: max response, negative = inhibition, hits mostly inhibitors; active = well fitted curve in the direction sought with a large enough effect; inconclusive = small, poorly fitted or top-dose-only effect, or another doubt; inactive = no such curve, though single readings can be large; an effect the other way counts as inactive or inconclusive;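 also: plate controls were enzyme without inhibitor for no effect and buffer without enzyme for full effect; nearly all actives have a fitted effect of over 40% in size; top concentration of the series not given in the record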
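Purified cruzain at 1.5 nM, pre-incubated 15 min with compound at room temperature in 100 mM sodium acetate pH 5.5, 5 mM DTT, 0.00005% Triton X-100. Reaction started with 2 uM Z-FR-AMC; AMC fluorescence increase over 60 s gives rate.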
Marburg entry inh: qHTS for inhibitors of binding or entry into cells for Marburg Virus | 300,000 compounds, 1.8% hits | AID 540276, 2011 | Potency, µM (doses to about 37.8 µM), without a hit: top-dose activity change, negative = inhibition, usual class: inhibitors | Marburg virus pseudotyped entry inhibition, cell reporter; control for the full effect not named in the record; about a third of the inactives were read at about 46 µM; active = well fitted inhibition curve with a large enough effect; inconclusive = small, poorly fitted or top-dose-only effect, or effect the other way; inactive = flat fitted curve, though single readings scatter; tested in HEK293 cells; about a fifth of its hits are not listed in these tables; also: % is scaled to controls: 0 for no effect and ±100 for the full control effect; luciferase read-out
Numbers without * were called inactive; ? = inconclusive; / = no result given; & = joins results of further samples; [ ] = dose if it differs, or a comment. Unless noted, calls follow the shape of the dose curve; as a rule, active means well fitted rising curve with a large enough effect; inconclusive means small, poorly fitted or top-dose-only effect; inactive means no such curve, though single readings can be large or run the other way. Potency is read from the fitted curve at half-maximal effect. The order is random; 4.7% or so of the library scored in one or more.

The line under a structure holds: Marburg entry inh, Cruzain noTriton, LASV entry inh, NS1 inh, StopGo reporter, SARS PLpro yeast, RE007 growth inh, Cruzain Triton
> Cc1ccc(CNC(=O)c2ccc[nH]2)cc1
  6.3%[46.1 µM], /, 10.7%, 2.5%, 15.4%, -2.2%, 25.0%, /
> COc1cc(OC)c(OC)cc1/C=N/n1c(-c2n[nH]c3c2CCC3)n[nH]c1=S
  /, /, /, 3.1%, -11.6%, -0.2%, 20.2%, /
> COc1ccc(C2C(C(C)=O)=C(O)C(=O)N2c2ccc(O)cc2)cc1 (stereo unspecified)
  16.0%[46.1 µM], /, 15.9%[46.1 µM], 8.9%, 4.8%, -0.7%, 1.8%, /
> Cc1no[n+]([O-])c1COc1ccc(/C=C(\C#N)C(N)=O)cc1
  -2.2%, 5.3%, -6.8%, -34.1%, -20.4%, -9.1%, -6.5%, -6.1%
> Cc1c(OCC(=O)NCCCN2CCOCC2)ccc2c3c(c(=O)oc12)CCC3
  /, /, /, 10.7%, -5.4%, -4.9%, 0.0%, /
> N=C1/C(=C\c2ccc(OC(=O)c3ccccc3Cl)cc2)C(=O)N=C2SC(N3CCOCC3)=NN12
  /, /, /, 4.2%, 44.3%[activator], -6.6%, -17.4%, /
> COc1ccc(C(C(=O)NC2CCCC2)N(Cc2cccnc2)C(=O)Cc2cccs2)c(OC)c1 (stereo unspecified)
  ?, /, /, -9.8%, 15.7%, -1.0%, -7.5%, /
> Cc1ccc(CNC(=O)c2ccc3nc(SCc4ccc(F)cc4)[nH]c3c2)cc1
  -5.8%[46.1 µM], -26.7%, /, /, ?, /, /, -4.9%
> COC(=O)c1c(NC(=O)c2ccc(Cl)c(Cl)c2)sc2c1CCCC2
  /, 13.3%, 2.8%[46.1 µM], /, 1.2%, /, /, -2.6%
> O=C(COC(=O)c1nc(Cl)ccc1Cl)c1ccc(Cl)s1
  /, -7.6%, /, 6.5%, 3.3%, 4.0%, -7.7%, -8.4%
> NC(=O)NC(CC(=O)NCCc1ccccn1)c1ccccc1Cl (stereo unspecified)
  6.5%[46.1 µM], /, ?, -0.2%, 16.9%, -0.6%, 0.9%, /
> Cc1ccc(CSc2nc(-c3ccc(C(C)(C)C)cc3)nc3cc(=O)[nH]n23)cc1
  /, 1.5%, 12.3%[46.1 µM], /, -12.5%, /, /, -3.6%
> COc1ccc(Oc2ccc(N/C=C3/CCCC3=O)cc2)cc1
  -9.4%, 20.8%, 1.1%, 17.3%, -5.6%, -0.3%, -2.7%, -6.5%
> O=S(=O)(NN1CCOCC1)c1ccc(Br)s1
  4.7%[46.1 µM], /, 6.0%[46.1 µM], -28.0%, -5.4%, -4.8%, 18.1%, /
> COc1ccc(-n2c(SCC(=O)Nc3cc(C)on3)nc3ccccc3c2=O)cc1Cl
  1.0%[46.1 µM], /, ?, ?, -16.4%, -0.3%, -6.6%, /
> Cc1ccc(CSc2nn3c(=O)c(C)nnc3s2)cc1
  ?, -2.4%, -11.7%, -1.9%, -21.4%, 8.5%, 48.3%, -4.0%
> Cc1cccc(-n2nnnc2SCC(=O)N(CC(C)C)c2c(N)n(CC(C)C)c(=O)[nH]c2=O)c1
  2.0%[46.1 µM], /, -4.4%, /, -7.3%, 0.6%, -2.3%, /
> CCN(CC)S(=O)(=O)c1cccc(C(=O)Oc2cccc(NC(=O)c3cccs3)c2)c1
  0.1%, -16.2%, 5.1%, ?, 5.8%, ?, -5.0%, -6.8%
> CC(=O)N(Cc1cccnc1)Cc1cc2ccc(C)cc2[nH]c1=O
  2.6%[46.1 µM], -18.5%, -0.2%, 3.7%, -13.2%, 5.7%, -6.3%, 0.5%
> Cc1cc(Br)ccc1NC(=O)CN(C)C(=O)CSCc1ccccc1
  13.3%, /, ?, /, -15.3%, 1.1%, 1.9%, /
> CCc1ccccc1NC(=O)Cn1cc(C(=O)c2ccncc2)c(=O)c2cc(C)ccc21
  /, -2.8%, 5.5%[46.1 µM], /, -15.8%, /, /, -1.9%
> Cc1cc(C)c(NC(=O)Cn2nnc(-c3ccccc3)n2)c(C)c1
  14.1%[46.1 µM], -0.2%, -10.8%[46.1 µM], /, -15.2%, /, /, 0.6%
> N#Cc1c(/N=C/c2ccc(O)cc2O)sc2c1C1CCN2CC1
  17.8%, -12.9%, -2.3%, -11.1%, -39.1%, 6.1%, -5.6%, -3.0%
> Cc1ccc(C(C(=O)NC2CCCCC2)N(C(=O)Cc2c[nH]c3ccccc23)c2ccccc2)o1 (stereo unspecified)
  ?, -6.9%, ?, 6.7%, -24.4%, -0.1%, 0.5%, -1.9%
> O=[n+]1cc(-c2ccc(Cl)cc2)n([O-])c2c1CCC2
  2.9%, /, -0.1%, 1.1%, -1.5%, -1.2%, 6.5%, /
> Cc1ccc2nc3c(c(Nc4ccc(O)cc4)c2c1)CCC3
  /, /, /, 4.6%, -16.9%, 2.1%, 3.4%, /
> COc1ccc(C(=O)Nc2ccc(OCc3cc(=O)n4ccsc4n3)cc2)cc1OC
  7.1%[46.1 µM], -4.8%, ?, /, -19.3%, /, /, -0.3%
> CCCC1(c2ccccc2)NC(=O)N(CC(=O)Nc2sc(-c3ccccc3)cc2C(=O)OCC)C1=O (stereo unspecified)
  ?, 7.94µM*, ?, -0.7%, 13.9%, 14.1%, -11.2%, 1.4%
> Cc1ccc(-n2ncc(C(=O)NCCc3ccsc3)c2C2CCN(C(=O)OC(C)(C)C)CC2)c(C)c1
  /, 7.2%, ?, /, -13.6%, /, /, -8.6%
> CN(Cc1cccc2cnccc12)C(=O)c1cc(COc2ccc(F)cc2F)on1
  /, /, /, -57.9%, ?, -12.3%, -9.2%, /
> Cn1cc(CCCC(=O)NCc2ccc(F)cc2)c2ccccc21
  9.4%, -5.4%, -16.0%, -13.0%, -15.5%&-19.5%, -3.0%, 10.8%, -0.6%
> COc1cccc(NC(=S)NC2CC3CCCC(C2)N3CC(C)C)c1 (stereo unspecified)
  /, /, /, -2.5%, -10.9%, -0.4%, -0.7%, /
> CCOP(=S)(OCC)Oc1cc(C)nc(C(C)C)n1
  /, 8.3%, /, /, -14.0%, /, 5.4%[18.4 µM], 0.9%
> COc1ccc(C2CC(C(F)(F)F)n3ncc(C(=O)Nc4cccc(O)c4)c3N2)cc1OC (stereo unspecified)
  ?, 8.5%, -14.6%, 19.1%, -26.0%, 2.0%, -6.2%, -1.2%
> Cc1cccc(NC(=O)CSc2nnc3c4ccccc4n(C)c3n2)c1
  -24.2%[46.1 µM], -1.3%, -5.6%[46.1 µM], /, -13.6%, /, /, -9.3%
> CN(CC(=O)Nc1cccnc1)S(=O)(=O)c1cc(Cl)ccc1Cl
  ?, -1.1%, -31.6%[14.3 µM], -1.4%, 10.0%, -1.8%, 2.5%, 3.4%
> COc1cccc(/C=N/n2c(-c3ccco3)nc3ccccc3c2=O)c1
  4.9%, 11.5%, -17.1%, -19.0%, ?, -22.5%, 49.9%, -4.0%
> CCCN(CCC)C(=O)Cn1c(=O)n(CCC(=O)NCCc2ccccc2)c(=O)c2ccccc21
  1.1%, -12.3%, ?, 6.7%, 1.7%, 0.7%, 11.4%, 0.5%
> Cc1ccc(CNC(=O)CSc2nc3c(sc4ccccc43)c(=O)n2CCCN2CCCC2)cc1
  ?, /, ?, /, -12.6%, -1.3%, 1.3%, /
> CC(C)(C)[C@H]1C=C(C(=O)N2CCOCC2)O[C@@H](OCc2ccc(CO)cc2)C1
  /, /, /, -2.4%, ?, 0.2%, -0.4%, /
> Cc1ccc(C2/C(=C(\O)c3ccc4c(c3)OCCO4)C(=O)C(=O)N2CC2CCCO2)cc1 (stereo unspecified)
  6.4%, /, ?, 2.5%, 3.4%, -3.9%, 4.2%, /
> CCOC(=O)N1CCN(C(=O)COC(=O)c2ccccc2NCCO)CC1
  3.8%, /, -26.2%, /, -12.7%, 2.8%, 13.0%, /
> COc1ccc(NC(=O)n2ncc3c(C)cccc32)cc1
  /, /, /, -2.7%, 44.7%[activator], -9.3%, -13.0%, /
> CCO[C@@H]1OC(C(=O)N2CCOCC2)=C[C@H](c2cn(C(C)=O)c3ccccc23)[C@H]1CCCO
  /, /, /, 0.0%, -7.4%, -0.8%, 0.1%, /
> Cc1ccccc1CS(=O)(=O)CC1Nc2ccc(C(=O)NCc3ccc(Cl)cc3)cc2NC1=O (stereo unspecified)
  /, -11.5%, -11.5%[46.1 µM], /, 0.0%, /, /, -1.6%
> CCOC(=O)c1ccc(NC(=O)c2sc3nc(N4CCOCC4)c4c(c3c2N)CCCC4)cc1
  /, /, /, -2.3%, 0.0%, -5.7%, 1.8%, /
> CN(C)c1nc(NS(=O)(=O)c2ccc(Cl)cc2)nc(N(C)C)n1
  -1.7%, 1.7%, -6.1%, 3.3%, 99.9%[activator], 10.5%, 9.8%, 2.5%
> O=C(Cn1c(=O)n(CC2CCCO2)c(=O)c2ccccc21)c1ccc(Cl)c(Cl)c1 (stereo unspecified)
  -7.5%, -6.9%, -2.7%, 2.2%, -5.8%, -2.6%, 7.5%, -4.6%
> Cc1ccc(NC(=O)N2CCN(c3ncccc3C(F)(F)F)CC2)cc1
  /, /, /, -5.3%, -1.8%, -0.5%, 22.4%, /
> CC(C)NC(=O)CN1C(=O)COc2ccc(S(=O)(=O)N3CCCCCC3)cc21
  15.6%[46.1 µM], -7.5%, 10.7%[46.1 µM], /, 0.3%, /, /, 0.3%
> COc1ccc(Nc2nnc(-c3ccc(C)c(S(=O)(=O)N4CCN(C)CC4)c3)c3ccccc23)cc1
  -2.5%[46.1 µM], 1.9%, -14.4%[46.1 µM], /, 1.5%, /, /, -4.1%
